Screening data: PubChem BioAssay, National Center for Advancing Translational Sciences (NCATS)
NS1 function inh = blocks influenza NS1 protein function; S. cerevisiae slowed by influenza A NS1, growth recovery by OD600; 270,000 compounds, 0.4% hits; Potency, µM (highest dose often 46.1 µM), for the others: at the highest dose activity, positive = more growth; AID 2326; also: actives are rising curves; nearly all actives have a fitted effect of over 50% in size
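Read-out: OD600 growth recovery of NS1-expressing budding yeast. Cells grown overnight at 30C in -URA glucose medium, washed, resuspended and diluted 1:100 in 2% galactose assay medium, pH 6.0. Same strain lacking NS1 served as positive control.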
Cruzain Triton = blocks cruzain activity in presence of Triton detergent; P25779; purified cruzain, Z-FR-AMC fluorescence, 0.01% Triton; Potency, µM, without a hit: max response, negative = inhibition, usual class: inhibitors; 200,000 compounds, 0.43% hits; AID 1478; active = well fitted curve in the direction sought with a large enough effect; inconclusive = small, poorly fitted or top-dose-only effect, or another doubt; inactive = no such curve, though single readings can be large; an effect the other way counts as inactive or inconclusive;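 also: plate controls were neutral wells for no effect and buffer without enzyme for full effect; nearly all actives have a fitted effect of over 40% in size; top concentration of the series not given in the record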
Target sequence (P25779 123-467 limits assumed): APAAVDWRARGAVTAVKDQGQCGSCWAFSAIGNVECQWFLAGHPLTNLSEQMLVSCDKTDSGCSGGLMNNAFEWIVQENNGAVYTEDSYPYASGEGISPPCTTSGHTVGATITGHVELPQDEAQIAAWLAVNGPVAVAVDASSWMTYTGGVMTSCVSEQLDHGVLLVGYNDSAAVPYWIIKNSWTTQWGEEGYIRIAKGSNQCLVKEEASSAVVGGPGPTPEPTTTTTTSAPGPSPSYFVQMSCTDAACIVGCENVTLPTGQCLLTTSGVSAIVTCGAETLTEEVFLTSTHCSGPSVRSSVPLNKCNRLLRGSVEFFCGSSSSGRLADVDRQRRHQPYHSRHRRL
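Z-FR-AMC hydrolysis (2 uM substrate) by cruzain (1.5 nM) monitored kinetically at ex 360/em 450 nm after 15 min room-temperature compound exposure; 0.01% Triton X-100, pH 5.5, 5 mM DTT.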
Cruzain noTriton = inhibitors of Trypanosoma cruzi cruzain without detergent; 200,000 compounds, 2.3% hits; Potency, µM, inactives show max response, negative = inhibition, most hits filed as inhibitors; AID 1476; P25779; purified cruzain, Z-FR-AMC fluorescence, no detergent; active = well fitted curve in the direction sought with a large enough effect; inconclusive = small, poorly fitted or top-dose-only effect, or another doubt; inactive = no such curve, though single readings can be large; an effect the other way counts as inactive or inconclusive;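 also: plate controls were enzyme without inhibitor for no effect and buffer without enzyme for full effect; nearly all actives have a fitted effect of over 40% in size; top concentration of the series not given in the record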
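Detergent-free condition (0.00005% Triton X-100) in acetate buffer pH 5.5 with DTT. 1.5 nM enzyme and compound were pre-mixed 15 min, then 2 uM Z-FR-AMC substrate added; reaction progress from fluorescence change between first and third reads (60 s).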
LASV entry inh = Lassa virus entry inhibition. Lassa virus pseudotype entry inhibition, cell reporter; control for the full effect not named in the record. Potency, µM (doses to about 37.9 µM), for the others: top-dose activity change, negative = inhibition, most hits filed as inhibitors. 300,000 compounds, 1.2% hits; active means well fitted inhibition curve with a large enough effect; inconclusive means small, poorly fitted or top-dose-only effect, or effect the other way; inactive means flat fitted curve, though single readings scatter; tested in HEK293 cells; also: % is scaled to controls: 0 for no effect and ±100 for the full control effect; nearly all actives have a fitted effect of over 50% in size; luciferase read-out
StopGo reporter = lowers the luciferase signal of an FMDV 2A StopGo reporter; Potency, µM (highest dose often 57.9 µM), without a hit: top-dose signal change, negative = less light; 410,000 compounds, 1.2% hits; human cells with a luciferase reporter of 2A StopGo recoding; control for the full effect not named in the record; active = well fitted falling curve with a large enough effect; inconclusive = small, poorly fitted or top-dose-only effect; inactive = no such curve, though single readings can be large or run the other way; tested in HEK293T cells; also: % is scaled to controls: 0 for no effect and ±100 for the full control effect; nearly all actives have a fitted effect of over 45% in size; luciferase light after 4 h
RE007 growth inh = less growth of the S. pombe RE007 Vpr strain; 360,000 compounds, 0.21% hits; Potency, µM (top dose mostly 92.2 µM), for the others: at the highest dose activity change, negative = less growth; S. pombe RE007 Vpr strain, BacTiter-Glo ATP luminescence, 24 h; control for the full effect not named in the record; AID 651644; active = well fitted falling curve with a large enough effect; inconclusive = small, poorly fitted or top-dose-only effect; inactive = no such curve, though single readings can be large or run the other way;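 also: % is scaled to controls: 0 for no effect and ±100 for the full control effect; nearly all actives have a fitted effect of over 50% in size; the assay follows cell death caused by Vpr and the record does not say whether a fall means rescue or toxicity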
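Fission yeast RE007 carrying one integrated HIV-1 vpr copy, seeded at OD 0.01 in PMG+AL medium with 23 nL pinned compound. Grown 24 h at 30 degrees; viability read by BacTiter-Glo luminescence after 5 min.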
SARS PLP yeast = SARS-CoV PLP inhibition in yeast; AID 485353; Potency, µM (series often up to 32.9 µM), for the others: at the top dose activity, positive = growth rescue; S. cerevisiae expressing SARS-CoV PLpro, growth rescue; control for the full effect not named in the record; 330,000 compounds, 0.19% hits; also: 0% is about no effect; nearly all actives have a fitted effect of over 55% in size; growth read by luminescence after 48 h
Marburg entry inh = blocks Marburg virus binding to or entry into cells. Marburg virus pseudotyped entry inhibition, cell reporter; control for the full effect not named in the record; about a third of the inactives were read at about 46 µM. Potency, µM (series often up to 37.8 µM), for inactives: at the highest dose activity change, negative = inhibition, most hits filed as inhibitors. 300,000 compounds, 1.8% hits; active = well fitted inhibition curve with a large enough effect; inconclusive = small, poorly fitted or top-dose-only effect, or effect the other way; inactive = flat fitted curve, though single readings scatter; tested in HEK293 cells; about a fifth of its hits are not listed in these tables; also: % is scaled to controls: 0 for no effect and ±100 for the full control effect; luciferase read-out
Active calls of the source: *; ? = inconclusive; / = not tested or not shown; [ ] = another dose, or the depositor's remark. Unless noted, calls follow the shape of the dose curve; as a rule, active means well fitted rising curve with a large enough effect; inconclusive means small, poorly fitted or top-dose-only effect; inactive means no such curve, though single readings can be large or run the other way. Potency is read from the fitted curve at half-maximal effect. No enrichment for hits; overall some 4.6% were active at least once.

SMILES	NS1 function inh	Cruzain Triton	Cruzain noTriton	LASV entry inh	StopGo reporter	RE007 growth inh	SARS PLP yeast	Marburg entry inh
O=C(Cc1ccc([N+](=O)[O-])cc1)NC(C(=O)O)C(O)c1cccc([N+](=O)[O-])c1 (stereo not drawn)	16%	/	/	8%	-14%	7%	0%	2%
Cc1cc(OCCCCN2C(=O)NC(C)(C)C2=O)cc(C)c1Cl	-5%	-3.0%	?	-8%	?	1%[3.69 µM]	-7%	-5%
Cn1c(C(=O)NN)cc2cc(Oc3ccccc3)ccc21	?	/	/	/	3%	4%	1%	/
S=c1nc(-c2ccco2)[nH][nH]1	7%	-1.2%	-2%	1%	-1%	0%	11%	-1%
CCc1cccc(NC(=O)CCNS(=O)(=O)c2cc(Br)cnc2N)c1	-3%	/	/	/	28%	7%	30%	/
N#CC1=C2SCN(C3CCCCC3)CN2C(=O)CC1c1c(F)cccc1Cl (stereo not drawn)	/	-22%	-18%	20%[46.1 µM]	0%	/	/	5%[46.1 µM]
CCC(C)n1c(=N)c(C(=O)NC2CCCCC2)cc2c(=O)n3cc(C)ccc3nc21 (stereo not drawn)	/	-0.3%	29%	21%[46.1 µM]	-5%	/	/	-4%[46.1 µM]
O=C(O)CN1c2cccc3cccc(c23)S1(=O)=O	-3%	/	/	-15%	12%	-10%	13%	10%[46.1 µM]
Cc1nn(-c2cc(N3CCCCC3)ccc2N)c(=O)c2ccccc12	8%	0.9%	16%	-12%[14.3 µM]	16%	18%	-1%	4%
COC(=O)c1ccc(CO/N=C/c2ccccc2OC)cc1	4%	/	/	/	-1%	2%	-1%	/
Cc1nc(-c2ccc(NC(=O)CC(C)C)cc2)cs1	-3%	-1.9%	0%	?	18%	-13%	-14%	-10%
OCC[C@@H]1C[C@@H](O)[C@H](O)[C@]2(OCCc3ccccc32)O1	-6%	/	/	/	-11%	-6%	-4%	/
CCc1nnc(NC(=O)CCC(=O)N2CCN(Cc3ccccc3)CC2)s1	-3%	5.4%	-2%	19%	/	13%	-5%	27%
CCOc1ccccc1NC(=O)C1CCN(S(=O)(=O)c2ccccc2)CC1	/	-4.1%	-15%	?	-13%	/	/	-1%[46.1 µM]
O=C(CN(CC1CCCO1)C(=O)CNS(=O)(=O)c1ccc(Cl)cc1)NC1CCCC1 (stereo not drawn)	-17%	/	/	-18%[46.1 µM]	8%	-10%	0%	8%[46.1 µM]
C=CCOC(=O)/C(=C\c1ccccc1)NC(=O)c1ccco1	3%	-5.8%	4%	-3%	-5%	-3%	7%	-13%
Cc1[nH]c(C)c(S(=O)(=O)NCc2ccc(F)cc2)c1C(=O)N1CCCCC1	7%	/	/	/	17%	4%	?	/
O=C(CCC1CCCC1)Nc1nnc(-c2ccc3c(c2)OCO3)s1	7%	-0.5%	10µM*	13%	-9%	-1%	8%	2%
Cc1nn(-c2ccc(C(=O)O)cc2)c(C)c1Cl	-4%	/	/	15%	8%	15%	-3%	1%[46.1 µM]
N#Cc1c(N)nc2c(c1N)CC(CO)O2 (stereo not drawn)	3%	2.2%	2%	-2%	9%	3%	-11%	-1%
c1cnc(N2CCN(c3nc4ccccc4n4cnnc34)CC2)nc1	-16%	5.5%	-6%	4%	9%	7%	10%	6%
COc1cccc(NC(=O)N(Cc2ccco2)C(C)c2cccs2)c1 (stereo not drawn)	-22%	-1.3%	-15%	-21%	-5%	-6%	-1%	?
Cc1cc(=O)[nH]c(SCC(=O)c2ccccc2)c1C#N	-18%	0.7%	1%	3%	2%	8%	6%	-12%
CC(CNC(=O)CN1C(=O)CCSc2ccccc21)c1ccccc1 (stereo not drawn)	-3%	/	/	0%[46.1 µM]	0%	-1%	-5%	4%[46.1 µM]
Cc1cc(C)n(CC(C)NCc2cn[nH]c2-c2ccc(C)c(C)c2)n1 (stereo not drawn)	-2%	/	/	/	-15%	0%	0%	?
O=C1C=C(N2CCOCC2)c2ccccc2C1=O	-4%	/	/	?	?	-21%	3%	2.5µM*
CS(=O)(=O)N(CC(=O)NCc1ccco1)Cc1ccc(Cl)cc1	2%	0.1%	2%	-1%	-15%	-19%	5%	17%
CCNc1nc(N)nc(Oc2ccc(C(=O)OC)cc2)n1	-5%	0.8%	3%	6%	38%[activator]	14%	1%	-5%
O=C(CCn1[nH]c(=O)c2ccccc2c1=O)OC1CCCCC1	-56%	-0.6%	-8%	22%	/	10%	-10%	0%
COCCn1cc(C(=O)N2CCCC(C)C2)c2c3ccccc3n(C)c2c1=O (stereo not drawn)	-5%	-0.2%	9%	-19%	1%	-6%	-1%	2%
COc1cc(C(=S)N(C)C)ccc1O	-82%	6.4%	-4%	15%	-15%	11%	3%	?
O=C(CSc1nc2[nH]ncc2c(=O)n1-c1ccc(Cl)c(Cl)c1)NCc1ccccc1Cl	/	/	/	?	?	5%	0%	?
Cc1cc(C)c2cc(C(c3nnnn3C3CCCC3)N3CCOCC3)c(=O)[nH]c2c1 (stereo not drawn)	?	-2.6%	?	-7%	-13%	-2%	3%	-5%
O=c1c2ccccc2ncn1Cc1nc2ccccc2s1	-59%	0.0%	-2%	12%	4%	12%	-2%	1%
COC(=O)c1ccc(C23CC4(C2)[C@H](CN(CC2CCCCC2)[C@@H]4c2ccccc2)C3c2ccc(Cl)nc2)cc1 (stereo partly drawn)	3%	-1.4%	-23%	/	17%	-6%	0%	/
Cc1ccc2oc(=O)c3cc(C(=O)NCCCN4C(C)CCCC4C)sc3c2c1 (stereo not drawn)	3%	/	/	/	-3%	-3%	0%	/
COc1ccc(NS(=O)(=O)c2ccc3ccccc3c2)c2ncccc12	-98%	/	/	?	27%	-7%	1%	?
CC(OC(=O)C1CCCC1)C(=O)Nc1ccc(S(N)(=O)=O)cc1 (stereo not drawn)	/	/	/	14%	-9%	6%	-1%	6%
COc1cc(NC(=S)NN2CCN(C)CC2)cc(OC)c1	10%	-1.5%	-11%	-14%	-16%	7%	1%	3%
CN(Cc1ccccc1)C(=O)CN(c1ccccc1Cl)S(C)(=O)=O	1%	/	/	/	-1%	-8%	-4%	/
O=C(NCCO)c1c(O)c2cccc3c2n(c1=O)CC3	-52%	-2.3%	14%	5%	9%	-11%	-9%	6%
Nc1ccc2c(c1)[nH]c(=O)c1ccccc12	/	/	/	?	13%	7%	/	-7%
COc1cc(OC)cc(C(=O)Nn2cc(C(=O)Nc3ccccc3F)c3ccccc3c2=O)c1	?	-3.4%	-12%	-4%	0%	-13%	12%	?
CCCCCCCOc1ccc(OC(=O)c2ccncc2)cc1	4%	1.1%	?	-21%	/	-5%	-6%	?
CC(C)(O)C#CC#CCN1CCOCC1	-1%	3.5%	-5%	-1%	-19%	-3%	0%	10%
O=C(Cn1nc(Cc2cccnc2)c2ccccc2c1=O)NCCCN1CCCC1=O	2%	1.9%	-2%	/	-5%	14%	1%	/
O=C(O)c1cc([N+](=O)[O-])ccc1C(=O)Nc1cccc([N+](=O)[O-])c1	13%	/	/	4%	-16%	21%	-2%	?
COCCCn1c(SCC(=O)N2CCCC(C)C2)nnc1-c1ccco1 (stereo not drawn)	1%	0.5%	-2%	4%	-2%	1%	4%	8%
O=C(c1ccc2c(c1)OCO2)N1CCc2ccccc2C1	-8%	1.1%	0%	?	35%[activator]	-11%	-2%	21%
CCOC(=O)c1ccc(N2CCN(c3cc(C)ccc3C)CC2)c(NC(=O)Nc2ccccc2)c1	/	0.0%	7.9µM*	7%[46.1 µM]	-19%	/	/	/
CC(=NCCc1c[nH]c2ccccc12)c1c(O)n(Cc2ccccc2)c(=O)[nH]c1=O	3%	/	/	11µM*	?	-6%	1%	?
COCCNC(=O)c1ccc2c(c1)N=C(C)c1cc(C)ccc1S2	/	-3.1%	13%	/	-2%	/	/	/
O=C(NCc1ccccc1)C1CCC(=O)N(CCN2CCOCC2)C1 (stereo not drawn)	6%	/	/	/	1%	-13%	3%	/
Cc1ccc(CNC(=O)Cc2cn(C)c3ccccc23)cc1	-36%	/	/	?	35%[activator]	-4%	0%	?
CN(C)CCCn1c(-c2ccc(Cl)cc2)csc1=Nc1ccccc1	/	-2.1%	3%	?	-24%	/	/	/
Cn1c(/C(C#N)=C(\O)c2ccc([N+](=O)[O-])s2)nc2ccccc21	2%	/	/	4%[46.1 µM]	14%	2%	2%	6%[46.1 µM]
COc1ccc(NC(=O)c2c(C)oc3ccc(O)c(CN4CCCC4)c23)cc1Cl	/	-2.0%	-9%	?	-16%	/	/	?
COc1ccc2[nH]c(C(=O)N3CCC(Cc4ccccc4)CC3)cc2c1	-2%	/	/	?	-8%	0%	-1%	2%
O=C(Nc1ccccc1C(=O)N1CCCCC1)c1ccco1	-1%	/	/	3%[46.1 µM]	10%	0%	0%	2%[46.1 µM]
CCCC(=O)NCC1(N(C)C)CCCCC1	/	0.5%	-5%	?	-8%	/	/	35%[46.1 µM]

(listing goes on)
SMILES	NS1 function inh	Cruzain Triton	Cruzain noTriton	LASV entry inh	StopGo reporter	RE007 growth inh	SARS PLP yeast	Marburg entry inh
CCOc1ccc(-c2n[nH]c(C(=O)NN)c2C)cc1	?	1.7%	-2%	?	38%[activator]	24%	-25%	?
Cc1nc(Nc2ccc(Cl)cc2)c2nnn(Cc3ccccc3)c2n1	5%	/	/	-24%	-20%	-12%	-1%	-32%[46.1 µM]
Cc1nc(N2CCN(Cc3ccccc3)CC2)nc2c1CCC2	/	/	/	-26%[46.1 µM]	-13%	-25%	-4%	?
CC(C)Oc1cccc(C(=O)C2CCCN(C(=O)c3cc(C4CC4)[nH]n3)C2)c1 (stereo not drawn)	-10%	/	/	/	-17%	-1%	-1%	/
O=C(c1cc([N+](=O)[O-])ccc1N1CCCCC1)N1CCCC1	5%	-3.5%	5%	1%	-21%	10%	2%	20%
O=C(O)c1ccc(Cn2cc(Cl)cn2)cc1	-46%	1.4%	0%	-23%	4%	-2%	1%	-5%[46.1 µM]
